Compound activity (PubChem BioAssay)
Vaccinia stage – blocks a specific stage of Vaccinia orthopoxvirus infection | Vaccinia-infected cells, mCherry/Venus stage reporter fluorescence; active compounds read low; some inactives read as strong as hits | activity change (mCherry), % (concentration not given with the values) | 89,000 compounds, 0.01% hits;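 active = mCherry past -33% and 40 or more points under the early reporter, replicates agreeing; inconclusive = past -33% without that gap or agreement; tested in A549 cells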;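 also: scaled between vehicle wells and reference inhibitor wells; 23 nL library stock went into each well; one replicate is shown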
Vaccinia stage Venus – also measured in Vaccinia stage; calls as there; activity change (Venus), %; measured here: Venus reporter, other viral stage;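 negative = less Venus signal; first of two replicates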
An asterisk follows results filed as active; ? = inconclusive; · = not tested or not shown; & = joins results of further samples. These rows are one share of the data; the hit share may differ from the screen's.

Each structure is followed by: Vaccinia stage, Vaccinia stage Venus
- C[C@H](O)C#Cc1cnc2c(c1)C(=O)N([C@H](C)CO)C[C@@H](C)[C@@H](CN(C)C(=O)c1ccncc1)O2
  13.5, 5.3
- C[C@@H]1CN([C@H](C)CO)C(=O)c2cc(-c3ccc(C#N)cc3)cnc2O[C@H]1CN(C)CC1CCCC1
  -7.8, -1.7
- C[C@H](O)C#Cc1ccc2c(c1)O[C@H](CN(C)C(=O)CN(C)C)[C@H](C)CN([C@@H](C)CO)S2(=O)=O
  24.4, 15.2
- O=C(C1CCCCC1)N1CC(=O)N2[C@@H](CO)[C@@H](c3ccc(-c4cccnc4)cc3)[C@@H]2C1
  2.0, 1.1
- O=C(C[C@H]1C=C[C@H](NC(=O)C2CCC2)[C@@H](CO)O1)NC1CCC1
  -5.0, 7.7
- C[C@@H]1CN([C@H](C)CO)C(=O)c2ccccc2-c2ccccc2CO[C@@H]1CN(C)S(=O)(=O)c1cn(C)cn1
  13.6, -1.8
- O=C(C[C@H]1C[C@H]2c3cc(NC(=O)C4CCC4)ccc3O[C@H]2[C@H](CO)O1)NCc1ccncc1
  3.0, 2.8
- O=C(Cc1ccccn1)N1CC2(C1)[C@H](c1ccccc1)[C@@H](CO)N2C(=O)c1cccnc1
  18.0, 11.8
- C[C@H]1CN([C@@H](C)CO)C(=O)c2cc(NS(=O)(=O)c3cn(C)cn3)ccc2O[C@H]1CN(C)C(=O)NC1CCCCC1
  8.0, 4.0
- COCC(=O)Nc1ccc2c(c1)C(=O)N(C)C[C@H](OC)[C@@H](C)CN(CC1CCCCC1)[C@H](C)CO2
  ?, ·
- Cc1noc(C)c1NC(=O)N(C)C[C@H]1OCCCC[C@@H](C)Oc2ccc(N(C)C)cc2C(=O)N([C@@H](C)CO)C[C@H]1C
  3.1, 16.0
- CCC(=O)Nc1ccc2c(c1)C(=O)N(C)C[C@@H](OC)[C@@H](C)CN(Cc1ccccc1OC)[C@@H](C)CO2
  -0.9, 0.8
- Cc1ccc(S(=O)(=O)Nc2ccc3c(c2)C(=O)N([C@@H](C)CO)C[C@H](C)[C@H](CN(C)S(=O)(=O)c2ccc(C)cc2)O3)cc1
  -21.3, -23.0
- OC[C@H]1[C@@H](c2ccc(-c3cccc(F)c3)cc2)[C@@H]2CN(Cc3cncnc3)CCCCN12
  -19.0, -15.7
- COc1ccc(CN(C)C[C@@H]2OCCCC[C@@H](C)Oc3ccc(NC(=O)Nc4ccc(F)cc4)cc3C(=O)N([C@@H](C)CO)C[C@H]2C)cc1
  ?, ·
- C[C@H](CO)N1C[C@H](C)[C@@H](CN(C)Cc2ccc3c(c2)OCO3)Oc2ccc(NC(=O)C3CCCCC3)cc2CC1=O
  -28.1, -20.1
- COCC(=O)N1[C@H](C#N)[C@H](c2ccc(C#Cc3ccccc3F)cc2)[C@H]1CO
  -16.2, -22.1
- CC(=O)n1cc([C@@H]2C=C(C(=O)N3CCN(Cc4ccc5c(c4)OCO5)CC3)O[C@H](OCc3ccc(CO)cc3)C2)c2ccccc21
  -9.1, -8.7
- COc1ccc(S(=O)(=O)N(C)C[C@@H]2OCCCC[C@H](C)Oc3ccc(NS(=O)(=O)c4ccc(C)cc4)cc3C(=O)N([C@H](C)CO)C[C@H]2C)cc1
  -17.8, -11.8
- Cc1noc(C)c1S(=O)(=O)N(C)C[C@H]1OCc2cn(nn2)CCCC(=O)N([C@@H](C)CO)C[C@H]1C
  4.8, 14.6
- Cc1ccc(S(=O)(=O)N(C)C[C@H]2OCc3ccccc3-c3c(n(C)c4ccccc34)C(=O)N([C@@H](C)CO)C[C@H]2C)cc1
  ?, ·
- COc1cccc(NC(=O)N2C[C@H](O)COC[C@H]3O[C@H](CC(=O)NC4CCC4)CC[C@@H]32)c1
  3.1, 3.5
- O=C(Nc1ccccc1)N1CC(=O)N2[C@H](CO)[C@H](c3ccc(C#CC4CCCCC4)cc3)[C@@H]2C1
  ?, ·
- Cc1ccc(S(=O)(=O)Nc2ccc3c(c2)CC(=O)N([C@H](C)CO)C[C@H](C)[C@@H](CN(C)Cc2ccc(-c4ccccc4)cc2)O3)cc1
  ?, ·
- CCNC(=O)[C@H]1[C@H](CO)[C@H]2Cn3c(cccc3=O)[C@@H]1N2C(=O)C1CCC1
  5.8, 9.2
- O=C(C[C@H]1CC[C@H]2[C@@H](COC[C@@H](O)CN2S(=O)(=O)c2ccccc2)O1)N1CCOCC1
  12.1, 7.3
- Cc1ccc(S(=O)(=O)N(C)C[C@H]2Oc3ccc(NC(=O)Cn4cnnn4)cc3CC(=O)N([C@@H](C)CO)C[C@@H]2C)cc1
  17.4, 11.1
- O=C(c1ccc2c(c1)OCO2)N1CC(=O)N2[C@H](CO)[C@H](c3ccc(C#CCC4CCCC4)cc3)[C@H]2C1
  ?, ·
- O=C(Nc1ccc(F)cc1)N1CCCCN2[C@H](CO)[C@H](c3ccc(C#Cc4ccccn4)cc3)[C@H]2C1
  5.1, -2.3
- COc1cccc(C#Cc2ccc3c(c2)O[C@@H](CN(C)C(=O)c2ccccn2)[C@H](C)CN([C@@H](C)CO)S3(=O)=O)c1
  ?, ·

Exported with bars between the fields: part of the list above
mol | Vaccinia stage | Vaccinia stage Venus
O=C(C[C@H]1C=C[C@H](NC(=O)C2CCC2)[C@@H](CO)O1)NC1CCC1 | -5.0 | 7.7
Cc1ccc(S(=O)(=O)Nc2ccc3c(c2)CC(=O)N([C@H](C)CO)C[C@H](C)[C@@H](CN(C)Cc2ccc(-c4ccccc4)cc2)O3)cc1 | ? | ·
CC(=O)n1cc([C@@H]2C=C(C(=O)N3CCN(Cc4ccc5c(c4)OCO5)CC3)O[C@H](OCc3ccc(CO)cc3)C2)c2ccccc21 | -9.1 | -8.7
C[C@H](O)C#Cc1ccc2c(c1)O[C@H](CN(C)C(=O)CN(C)C)[C@H](C)CN([C@@H](C)CO)S2(=O)=O | 24.4 | 15.2
O=C(Nc1ccc(F)cc1)N1CCCCN2[C@H](CO)[C@H](c3ccc(C#Cc4ccccn4)cc3)[C@H]2C1 | 5.1 | -2.3
C[C@H](O)C#Cc1cnc2c(c1)C(=O)N([C@H](C)CO)C[C@@H](C)[C@@H](CN(C)C(=O)c1ccncc1)O2 | 13.5 | 5.3
CCC(=O)Nc1ccc2c(c1)C(=O)N(C)C[C@@H](OC)[C@@H](C)CN(Cc1ccccc1OC)[C@@H](C)CO2 | -0.9 | 0.8

Following part:
Each structure is followed by: Vaccinia stage, Vaccinia stage Venus
- COc1ccc(NC(=O)N(C)C[C@@H]2OCCCC[C@@H](C)Oc3ccc(NS(C)(=O)=O)cc3C(=O)N([C@H](C)CO)C[C@H]2C)cc1
  6.6, -10.3
- CCC(=O)N[C@@H]1CC[C@H](CC(=O)NCc2ccccc2OC)O[C@H]1CO
  -6.2, 6.0
- COCC(=O)N1[C@H](CO)[C@@H](c2ccccc2)[C@@H]1CN(C)C(=O)c1ccccc1
  20.4, 18.0
- Cc1cccc(S(=O)(=O)N2CC[C@@H]3[C@H](CO)N(C)c4ccc(Br)cc4[C@@H]32)c1
  -19.1, -16.3
- N#C[C@H]1[C@@H](c2ccc(C#CC3CCCCC3)cc2)[C@H](CO)N1C(=O)Nc1ccc(F)cc1
  ?, ·
- C[C@H](CO)N1C[C@H](C)[C@@H](CN(C)S(=O)(=O)c2ccccc2)Oc2ccc(NS(=O)(=O)c3cccs3)cc2CC1=O
  5.6, 0.7
- Cc1noc(C)c1S(=O)(=O)Nc1ccc2c(c1)C(=O)N([C@@H](C)CO)C[C@@H](C)[C@@H](CN(C)S(=O)(=O)c1ccccc1)OCCCC[C@H](C)O2
  ?, ·
- O=C(C[C@@H]1C=C[C@H](NC(=O)Nc2ccccc2F)[C@@H](CO)O1)NCc1ccc(F)cc1
  16.2, 3.6
- C[C@@H]1CN([C@@H](C)CO)C(=O)c2cccc(NC(=O)CCCCCC(=O)Nc3ccccc3N)c2O[C@@H]1CN(C)C(=O)Nc1ccc(C(F)(F)F)cc1
  11.1, 2.6
- COCCNC(=O)C[C@H]1C[C@@H]2c3cc(NC(=O)NC4CCCCC4)ccc3O[C@@H]2[C@H](CO)O1
  8.8, 2.8
- C[C@@H]1CN([C@@H](C)CO)C(=O)c2cc(/C=C/c3ccccc3)cnc2O[C@H]1CN(C)C
  -9.7, -7.7
- COc1ccc(NC(=O)N(C)C[C@@H]2Oc3c(NC(=O)Nc4ccc5c(c4)OCO5)cccc3C(=O)N([C@H](C)CO)C[C@H]2C)cc1
  10.5, 2.1
- C[C@H]1CN([C@@H](C)CO)C(=O)c2cc(-c3ccc(C#N)cc3)cnc2O[C@@H]1CN(C)C(=O)Nc1ccc(C(F)(F)F)cc1
  -29.0, -30.3
- Cc1ccccc1-c1cnc2c(c1)C(=O)N([C@H](C)CO)C[C@H](C)[C@H](CN(C)Cc1ccncc1)O2
  8.6, 10.0
- COc1ccc(S(=O)(=O)N(C)C[C@@H]2OCCCC[C@H](C)Oc3ccc(NS(=O)(=O)c4cn(C)cn4)cc3C(=O)N([C@@H](C)CO)C[C@H]2C)cc1
  24.5, 6.1
- C[C@@H]1CN([C@H](C)CO)C(=O)Cc2cc(NC(=O)CCN3CCOCC3)ccc2O[C@H]1CN(C)C(=O)Nc1ccc(F)cc1
  6.0, 8.4
- Cc1noc(C)c1NC(=O)Nc1ccc2c(c1)CC(=O)N([C@@H](C)CO)C[C@@H](C)[C@H](CN(C)S(=O)(=O)c1ccc(Cl)cc1)O2
  22.0, 7.6
- CO[C@@H]1CN(C)C(=O)c2cc(NS(=O)(=O)c3cn(C)cn3)ccc2OC[C@@H](C)N(Cc2ccc(C(F)(F)F)cc2)C[C@H]1C
  -30.8, -16.4
- C[C@H]1CN([C@@H](C)CO)C(=O)c2cc(/C=C/c3ccccc3)cnc2O[C@H]1CN(C)S(=O)(=O)c1ccccc1F
  -18.1&-28.1, -11.6&-15.7
- C[C@H](CO)N1C[C@H](C)[C@H](CN(C)S(=O)(=O)c2cn(C)cn2)Oc2c(NC(=O)C3CC3)cccc2C1=O
  7.2, 8.9
- C[C@@H](O)C#Cc1ccc([C@@H]2[C@H](CO)N3CCCCN(S(=O)(=O)Cc4ccccc4)C[C@@H]23)cc1
  -2.2, -0.4
- C[C@@H](NC(=O)C[C@H]1C=C[C@@H](NC(=O)c2cccnc2)[C@H](CO)O1)c1ccccc1
  10.3, 11.9
- CCCNC(=O)C[C@H]1C[C@H]2c3cc(NC(=O)COC)ccc3O[C@H]2[C@H](CO)O1
  -1.6, 6.0
- C[C@@H]1CCCCO[C@H](CN(C)Cc2ccc3c(c2)OCO3)[C@@H](C)CN([C@H](C)CO)C(=O)c2cc(NC(=O)c3ccccc3)ccc2O1
  -19.9, -18.1
- COc1ccc2c3c([nH]c2c1)[C@@H](CO)N(C(=O)Nc1ccc(F)cc1)CC31CN(Cc2ccc(F)cc2)C1
  ?, ·
- C[C@H]1CCCCO[C@@H](CN(C)C(=O)Nc2ccccc2)[C@@H](C)CN([C@@H](C)CO)C(=O)c2cc(NS(=O)(=O)c3cccs3)ccc2O1
  1.5, 0.4
- C[C@@H]1CN([C@@H](C)CO)C(=O)CCCn2cc(nn2)CO[C@H]1CN(C)C(=O)Nc1ccnc(N2CCOCC2)c1
  4.9&16.7, 2.2&15.5
- O=C(C1CCCCC1)N1C[C@@H]2[C@H](c3ccccc31)[C@@H](CO)N2C(=O)c1ccccc1
  5.3, 22.3
- COc1ccccc1NC(=O)N1CCCCN2[C@H](CO)[C@@H](c3ccc(-c4cccc(F)c4)cc3)[C@@H]2C1
  ?, ·
- CCCNC(=O)N1[C@H](CN(C)C(C)=O)[C@H](c2ccc(C3=CCCC3)cc2)[C@@H]1CO
  2.6, 4.9
- COCC(=O)Nc1ccc2c(c1)[C@H]1C[C@@H](CC(=O)N[C@H](C)c3ccccc3)O[C@H](CO)[C@H]1O2
  12.6, 21.1
- C[C@H](CO)N1C[C@H](C)[C@H](CN(C)C)Oc2ncc(C#CC(C)(C)O)cc2C1=O
  5.0, 4.5
- Cc1ccc(S(=O)(=O)Nc2ccc3c(c2)CC(=O)N([C@H](C)CO)C[C@@H](C)[C@H](CN(C)C(=O)Nc2ccc(F)cc2)O3)cc1
  18.4, 15.9
- CO[C@H]1CN(C)C(=O)c2ccc(NS(=O)(=O)c3ccc(C)cc3)cc2OC[C@@H](C)N(C)C[C@@H]1C
  -1.7, -1.0
- C[C@H](CO)N1C[C@H](C)[C@@H](CN(C)C(=O)Nc2ccc(C(F)(F)F)cc2)OCCCC[C@H](C)Oc2ccc(NC(=O)Nc3ccccc3)cc2C1=O
  -18.1, -8.2
- C[C@@H]1CN([C@@H](C)CO)C(=O)c2cc(NC(=O)Nc3ccc4c(c3)OCO4)ccc2O[C@H]1CN(C)S(=O)(=O)c1ccc(F)cc1
  0.0, 0.9
- C[C@H](CO)N1C[C@H](C)[C@H](CN(C)CC2CC2)Oc2ccc(N(C)C)cc2CC1=O
  7.6, 10.1
- CCCNC(=O)[C@@H]1[C@@H](CO)[C@@H]2Cn3c(ccc(C4=CCCC4)c3=O)[C@H]1N2CCC(F)(F)F
  -1.1, 4.8
- O=S(=O)(c1cccc(F)c1)N1CC[C@@H]2[C@H]1c1cc(C#Cc3ccccc3F)ccc1N[C@@H]2CO
  -21.9, -16.5
- C[C@H]1CN([C@@H](C)CO)C(=O)c2cc(NS(=O)(=O)c3ccc(F)cc3)ccc2O[C@H]1CN(C)C(=O)Nc1ccccc1
  -1.2, 2.1
- CC(=O)N(C)C[C@H]1Oc2cc(C#Cc3ccccn3)ccc2S(=O)(=O)N([C@H](C)CO)C[C@@H]1C
  15.3, 15.5
- CCN(C[C@@H]1N[C@@H](CO)[C@@H]1c1ccccc1)C(=O)c1ccncc1
  8.3, 12.0
